T cruzi repl = inhibitors of intracellular T. cruzi growth, primary screen, luminescence, NIH3T3 host cells | T. cruzi beta-gal in NIH3T3, 90 h | inhibition, % (concentration not given with the values) | actives 1.4% (n = 300,000);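 active = mean inhibition across valid replicates above about 55%, limit read from the data; inconclusive = mean below that limit but half or more replicates reach it; inactive = mean below it, under half of replicates reach it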;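 note: signal also drops with host cell toxicity which is not excluded here; 0% = plate median of DMSO wells and 100% = zero luminescence signal; higher percent means less beta-gal luminescence so fewer parasites; stock transfer was 50 nL into about 50 µL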
Beta apoptosis = inhibitors of cytokine-induced beta cell apoptosis, primary screen, luminescence; protection from apoptosis, % (test concentration not listed); INS-1E cytokine-induced death, ATP luminescence, 48 h; percent of positive-control rescue, neutral wells zero; actives 0.8% (n = 300,000);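 active = all replicates at 75% or more, or half of them and the mean; inconclusive = half reach 75% but not the mean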;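 note: 0% = cytokine-treated negative control wells and 100% = positive control rescue; higher means more ATP so stronger rescue from cytokine killing; wells of about 40 µL received 100 nL stock; the first replicate is given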
LANA-H2A inh = blockers of LANA interaction with H2A/H2B – biochemical, FP readout, HTS, primary screen; inhibition, % (no concentration beside the values); Protein LANA1 (Human herpesvirus 8 type P (isolate GK18)), Q9QR71; actives 0.6% (n = 320,000); cell-free LANA-H2A/H2B peptide, fluorescence polarization; in the data active = inhibition mostly above about 10%, no sharp cut-off; inactive = mostly below about 6.7%;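 note: stock transfer was 7.5 nL into about 10 µL; 0% = median of vehicle wells and 100% = median of positive control wells; one replicate is shown; the record names a cut of 25% in any replicate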
Vif A3G = inhibitors of Vif binding to APOBEC3G peptide, primary screen, biochemical, TR-FRET, GST-Vif 1-94, biotin-A3G peptide, dose response retest (AID 1117319) | Virion infectivity factor (Human immunodeficiency virus type 1 group M subtype B (isolate … | TR-FRET GST-Vif / biotin-A3G peptide binding; higher % means a stronger effect; test concentration not given here; strong numbers were not always called active | inhibition, %; hits with a dose series show IC50 in µM | actives 0.57% (n = 260,000);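 active = above the screen mean plus three standard deviations and confirmed in dose response; inconclusive = results disagree or hit not tested in dose response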;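 note: Vif residues 1-94 fused to GST binding biotinylated APOBEC3G peptide 110-148; 0% = full assay without inhibitor and 100% = GST in place of GST-Vif; retest series ran down from 100 µM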
Bfl-1 A1 inh = caspase 3/7 activation in MEF A1-2A-BIM cells, primary screen, A1 inhibitor project, cell-based, luminescence, HTS | Caspase-Glo 3/7 luminescence, 3 h; percent of clofoctol response, vehicle zero | caspase activation, % (concentration not given with the values) | actives 0.066% (n = 330,000) | AID 2462, 2010;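 active = over half of replicate activation scores above 10%, or exactly half above 10 with the replicate mean above 10; inconclusive = replicate mean below 10 yet half the replicates above 10; inactive = over half of replicates below 10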;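 note: wells of about 30 µL received 50 nL stock; many hits fall short of the cut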
RanGTP-Impb inh = inhibitors of RanGTP-importin-beta interaction, primary screen, biochemical, FRET, CFP-Ran, YFP-importin-beta, homogeneous | Ran GTPase (GTP-bound) - importin-beta complex | cell-free CFP-Ran/YFP-importin-beta FRET ratio | inhibition, % (concentration not given with the values) | actives 1.1% (n = 300,000) | AID 2216, 2009;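 active = most replicates above 15%; inconclusive = exactly half above 15%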;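 note: 0% = DMSO wells and 100% = Ran loaded with GDP instead of GTP; wells of about 40 µL received 100 nL stock; the first replicate is given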
MLL AF4-AF9 inh = inhibitors of AF4 peptide binding to AF9, primary screen, biochemical, AlphaScreen, biotin-AF4 peptide, FLAG-AF9, single point. Protein AF-9 (Homo sapiens), P42568. inhibition, % at 10 µM. actives 0.47% (n = 350,000);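 active = every replicate reaching a set inhibition limit, whatever the replicate mean, cut at about 25% in these data; inconclusive = mean inhibition reaches that limit but some replicates miss it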;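 note: 0% = plate neutral control median and 100% = total signal loss; the record names both 10 and 1 µM as test concentration; the first replicate is given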
Target sequence (P42568 whole entry, looked up): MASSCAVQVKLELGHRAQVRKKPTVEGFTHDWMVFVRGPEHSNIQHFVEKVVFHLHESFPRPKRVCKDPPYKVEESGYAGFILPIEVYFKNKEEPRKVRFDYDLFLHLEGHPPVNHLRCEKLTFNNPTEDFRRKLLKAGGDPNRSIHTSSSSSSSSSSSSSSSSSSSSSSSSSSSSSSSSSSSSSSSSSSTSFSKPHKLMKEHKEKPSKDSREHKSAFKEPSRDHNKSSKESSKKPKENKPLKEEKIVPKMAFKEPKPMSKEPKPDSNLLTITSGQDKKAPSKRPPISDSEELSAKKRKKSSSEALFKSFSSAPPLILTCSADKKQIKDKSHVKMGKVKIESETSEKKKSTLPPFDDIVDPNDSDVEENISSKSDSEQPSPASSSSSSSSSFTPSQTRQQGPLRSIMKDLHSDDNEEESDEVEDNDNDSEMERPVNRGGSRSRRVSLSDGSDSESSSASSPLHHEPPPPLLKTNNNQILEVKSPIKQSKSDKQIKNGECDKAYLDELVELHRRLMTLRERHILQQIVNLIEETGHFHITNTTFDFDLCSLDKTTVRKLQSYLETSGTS
Calb FLC = C. albicans growth inhibition with fluconazole, primary screen, CaCi-2 strain, Alamar Blue fluorescence; C. albicans CaCi-2 (fluconazole-resistant clinical isolate) + fluconazole, 48 h; growth inhibition, % (test concentration not listed); actives 0.57% (n = 300,000); AID 1979, 2009;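 active = most replicates above 75%; inconclusive = exactly half above 75%; inactive = most below 75%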;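 note: all wells also contain fluconazole at 8 µg/ml as a sub-toxic cotreatment; 0% = median of DMSO wells and 100% = median of geldanamycin control wells; wells of about 8 µL received 7.5 nL stock; the first replicate is given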
Active calls of the source: *; ? = inconclusive; / = not tested or not shown.

SMILES | T cruzi repl | Beta apoptosis | LANA-H2A inh | Vif A3G | Bfl-1 A1 inh | RanGTP-Impb inh | MLL AF4-AF9 inh | Calb FLC
O=C(CSc1nnc(-c2ccncc2)n1Cc1ccccc1)Nc1nccs1 | 5 | 3 | 4.3 | 5% | -0.3 | -3.2 | / | 0
CCOc1cc(C2NN=C(c3ccccc3)S2)ccc1OCc1ccc(F)cc1 (stereo not drawn) | -1 | 7 | -3.0 | 4% | -2.3 | -1.2 | / | -6
COc1ccc(N(CC(=O)NCc2ccccc2OC)S(=O)(=O)c2ccccc2[N+](=O)[O-])c(OC)c1 | 29 | 2 | 1.3 | -8% | 0.2 | -1.4 | 5.0 | 6
CCCCN(C)CCNC(=O)C1CCCN(S(=O)(=O)c2cccc3nsnc23)C1 (stereo not drawn) | 30 | -5 | -3.9 | / | 0.2 | 1.5 | -4.1 | -2
CCn1c2ccccc2c2cc(/C=N/NC(=O)c3ccccc3C)ccc21 | -27 | 8 | 5.7 | 10% | 1.0 | 1.4 | -4.5 | 6
COc1ccccc1Nc1nc(C)c(C(=O)Nc2ccccc2)s1 | 7 | 3 | -1.3 | -12% | -0.7 | ? | 1.9 | -18
NC(=O)c1ccc(NC(=O)COC(=O)c2ccc([N+](=O)[O-])cc2)cc1 | -4 | -7 | 0.6 | / | 0.3 | ? | -87 | 4
NC(=O)C1CCN(C(=O)C(=O)c2cn(CC(=O)N3CCCC3)c3ccccc23)CC1 | -9 | -2 | 2.9 | -1% | 0.0 | -5.0 | -3.8 | 1
CCn1cc(C(=O)N2CCN(c3ccc(OC)cc3)CC2)c(=O)c2cc(S(=O)(=O)N3CCOCC3)ccc21 | -8 | 5 | -3.8 | / | 0.4 | -0.2 | 2.4 | -1
COc1ccccc1NC(=O)C(C)OC(=O)CCSc1ccc(F)cc1 (stereo not drawn) | 6 | -4 | -1.3 | 3% | -0.3 | 2.5 | 4.1 | 0
CCOC(=O)c1nc(Nc2ccc(N3CCOCC3)cc2)c2ccccc2n1 | 9 | 5 | -2.0 | 8% | 0.9 | 0.6 | 7.5 | 11
CCN1C(=O)[C@H]2[C@@H](c3ccc(Cl)cc3)N3C(=O)CN(Cc4ccccc4)C(=O)[C@@]3(C)[C@H]2C1=O | -9 | -5 | -0.2 | / | -0.3 | -1.2 | -0.7 | 21
CCCn1nc(NC(=O)C(C)C)c2cc3cc(OC)ccc3nc21 | 0 | 11 | 2.4 | 7% | -4.5 | 58* | -3.6 | -6
Cc1c(Nc2ncnc3nc[nH]c23)c(=O)n(-c2ccccc2)n1C | -4 | -2 | -3.5 | -4% | 0.5 | ? | -15 | -7
COc1cc(C(C)=O)ccc1OCC(O)CN1CCN(S(=O)(=O)c2ccccc2)CC1 (stereo not drawn) | -1 | 1 | 1.0 | -4% | -0.6 | -2.3 | / | 5
CCOC(=O)C1=C(C)NC(SCC(=O)O)=NC1c1ccccc1 (stereo not drawn) | 0 | 5 | 1.2 | 18% | 0.2 | 5.9 | / | 9
O=C(O)c1cc(NS(=O)(=O)c2cccc3nsnc23)cc(C(=O)O)c1 | -21 | -4 | 0.9 | -8% | 0.1 | 4.6 | -1.5 | -5
CCOc1ccc(-c2c(C(=O)N/N=C/c3c[nH]c4ccccc34)nnn2-c2nonc2N)cc1 | 14 | 5 | -0.5 | / | 0.7 | 5.0 | -16 | 7
Cc1ccc(S(=O)(=O)NCCNC(C)c2ccc(Br)cc2)cc1 (stereo not drawn) | / | 6 | -0.5 | -13% | 0.3 | / | 3.2 | /
COc1ccccc1NC(=O)C(C)OC(=O)CCC1CCCCC1 (stereo not drawn) | -6 | -7 | -0.3 | 1% | 0.7 | -1.7 | -2.5 | -2
Cc1cccc(S(=O)Cc2ccc(C(=O)N3CCOCC3)o2)c1 (stereo not drawn) | -10 | -2 | -4.2 | / | 1.1 | -1.9 | -1.2 | 16
O=C1NC[C@H](c2ccccc2)OC(=O)[C@H](Cc2ccc(F)cc2)C/C=C\C[C@@H]1CC(=O)N(CCO)Cc1ccccc1 | / | 2 | -1.5 | / | -1.0 | / | -0.7 | /
COc1ccc(-c2cc(C)no2)cc1S(=O)(=O)N1CCN(c2ccc([N+](=O)[O-])cc2)CC1 | 11 | -4 | 2.9 | / | -0.3 | 1.7 | -1.0 | -6
CC1CCCC(NC(=O)C2CCN(C(=O)Nc3ccccc3)CC2)C1C (stereo not drawn) | -17 | -1 | 7.7 | 0% | -0.2 | 4.2 | -5.6 | -3
CN(C(=O)COC(=O)c1ccc2c(c1)NC(=O)CS2)C1CCS(=O)(=O)C1 (stereo not drawn) | 2 | -2 | -0.1 | -5% | -0.7 | 0.7 | / | 8

Reformatted in CSV form: 3 of the compounds above
canonical_smiles,T cruzi repl,Beta apoptosis,LANA-H2A inh,Vif A3G,Bfl-1 A1 inh,RanGTP-Impb inh,MLL AF4-AF9 inh,Calb FLC
Cc1ccc(S(=O)(=O)NCCNC(C)c2ccc(Br)cc2)cc1 (stereo not drawn),/,6,-0.5,-13%,0.3,/,3.2,/
COc1ccccc1NC(=O)C(C)OC(=O)CCC1CCCCC1 (stereo not drawn),-6,-7,-0.3,1%,0.7,-1.7,-2.5,-2
Cc1cccc(S(=O)Cc2ccc(C(=O)N3CCOCC3)o2)c1 (stereo not drawn),-10,-2,-4.2,/,1.1,-1.9,-1.2,16

Next part
SMILES | T cruzi repl | Beta apoptosis | LANA-H2A inh | Vif A3G | Bfl-1 A1 inh | RanGTP-Impb inh | MLL AF4-AF9 inh | Calb FLC
C/C(=N\NC(=O)c1ccc2c(c1)OCO2)c1ccc(C(=O)O)s1 | -11 | 1 | -7.0 | 0% | -2.1 | -0.3 | -4.8 | -23
CCN1CCCC(CO)(Cc2ccccc2)C1 (stereo not drawn) | -1 | 2 | 0.6 | 2% | 0.7 | 1.2 | -0.6 | 9
COc1ccc(/C(N)=N/OC(=O)c2cccs2)cc1 | 3 | -1 | 7.1 | -10% | 0.0 | -4.8 | / | 2
O=C(Nc1ccccc1C(=O)N1CCCCCC1)c1ccc(F)cc1 | -5 | -5 | -1.3 | / | -0.8 | -2.3 | 2.4 | 0
O=C1Nc2ccccc2/C1=N/c1sc2c(c1C(=O)NCCc1ccccc1)CCCC2 | 23 | -4 | -1.6 | ? | -2.2 | -2.8 | / | -4
CCOc1ccc(Nc2nc(Cc3nnc(SCC(N)=O)o3)cs2)cc1 | -14 | / | 3.0 | ? | 0.6 | -4.7 | / | 6
CC(C#N)OC(=O)c1cccnc1SCC(=O)Nc1ccc2c(c1)OCO2 (stereo not drawn) | / | 3 | -1.2 | -4% | 1.5 | / | 8.1 | /
COc1ccccc1C(=O)NC(=O)COc1ccc([N+](=O)[O-])cc1 | -12 | / | 0.4 | 4% | 0.3 | -9.7 | 0.9 | -4
COc1ccc(NC2=NC(C)(CO)CS2)cc1 (stereo not drawn) | -10 | -5 | 1.9 | 66% | 1.3 | ? | 1.0 | 8
COc1ccccc1/C=C/C(=O)NC(=S)N(C)C1CCCCC1 | -3 | -3 | -2.9 | 22% | -0.6 | 0.8 | 11 | 0
CCn1c(CCCc2ccc(OC)c(C)c2)n[nH]c1=S | -1 | -8 | -0.4 | / | -0.6 | -1.7 | -4.6 | 3
Cc1cc(C)n2nc(C(=O)N/N=C/c3ccccc3Cl)nc2n1 | 5 | 1 | -3.2 | / | 0.8 | -2.7 | 0.2 | -11
COc1cccc(C(C(=O)NC2CCCC2)N(Cc2cccnc2)C(=O)Cc2cccs2)c1 (stereo not drawn) | ? | -3 | 1.7 | / | 0.0 | 8.3 | -0.3 | 15
O=C(CCn1cnc2ccccc21)N/N=C/c1ccc(O)cc1 | -15 | -4 | -1.1 | -2% | 0.9 | -2.7 | -0.2 | -7
COc1ccc(Cl)cc1NC(=O)CN1CCCC1 | 3 | -3 | -2.1 | 0% | 1.0 | -1.0 | 0.7 | -6
CCc1cccc(C)c1NC(=O)CNCc1ccccc1 | -4 | 1 | -0.4 | 14% | 0.3 | ? | 1.8 | 36
C=CCOC(=O)/C(=C/c1ccco1)NC(=O)/C=C/c1ccccc1 | 2 | 0 | 4.6 | 24% | -0.6 | 1.3 | / | -1
O=C(O)c1cccnc1SC1CC(=O)N(CCc2ccccc2)C1=O (stereo not drawn) | -7 | -7 | -0.9 | 0% | -0.5 | -5.6 | 5.4 | -7
Cc1ccc2nc(/C(C#N)=C\c3ccc([N+](=O)[O-])o3)[nH]c2c1 | 67* | 102* | -0.8 | ? | 0.3 | ? | / | 71
O=c1[nH]c(/C(Cl)=C/c2c(F)cccc2Cl)nc2cc(Cl)ccc12 | 0 | -13 | -6.0 | -11% | -1.9 | -2.7 | 0.2 | 3
O=C(CCCc1nc2ccccc2s1)NC(c1ccccc1)c1ccccc1 | 10 | 3 | 0.0 | / | 0.5 | 0.3 | / | 4
Clc1ccc(Oc2cccc(/C=N/n3cnnc3)c2)cc1 | 18 | 0 | 1.2 | 21% | 0.3 | -0.6 | / | 0
COc1ccc(CCN2CC(C(=O)NCc3c(C)n[nH]c3C)CCC2=O)cc1 (stereo not drawn) | 0 | -2 | 2.5 | / | -0.4 | 3.6 | -0.3 | -3
CCCc1cc(=O)[nH]c(SCC(=O)c2cc(C)n(C3CC3)c2C)n1 | 3 | 0 | 4.1 | 6% | 0.8 | 2.9 | / | ?
CCN(CC)CC(C)CNC(=O)CC(C(=O)N1CCc2ccccc21)n1ccnc1 (stereo not drawn) | -18 | / | 7.4 | 28% | -0.5 | 5.0 | / | -17

The results go on.
SMILES | T cruzi repl | Beta apoptosis | LANA-H2A inh | Vif A3G | Bfl-1 A1 inh | RanGTP-Impb inh | MLL AF4-AF9 inh | Calb FLC
CCc1ccccc1NC(=O)/C(=C/c1ccccc1)c1ccccc1 | 27 | 6 | -1.7 | 18% | -0.1 | 5.5 | / | 2
CCOC(=O)c1ccc2nc(Nc3nc4ccc(F)cc4s3)sc2c1 | -3 | -5 | -3.6 | 0% | -0.1 | 6.8 | -5.5 | 3
O=C(COc1cccc2ccccc12)N/N=C/c1ccco1 | 0 | -3 | 3.6 | / | -0.9 | 2.8 | 5.2 | 10
CN(C(=O)c1cccc(C#N)c1)c1nnc(C2CCOC2)s1 (stereo not drawn) | -36 | -1 | 1.0 | ? | 0.8 | -0.6 | / | 7
CCCn1nnc(NC(=O)c2ccccc2Br)n1 | -13 | -11 | -4.6 | 17% | -0.7 | 3.3 | / | 4
COc1ccc(-c2[nH]ncc2CNC(C)c2ccccc2Cl)cc1F (stereo not drawn) | 12 | -2 | 2.6 | -5% | 1.7 | 5.0 | 1.5 | 5

Entries listed so far marked active in RanGTP-Impb inh.
mol	LANA-H2A inh	Vif A3G	Bfl-1 A1 inh	RanGTP-Impb inh	MLL AF4-AF9 inh
CCCn1nc(NC(=O)C(C)C)c2cc3cc(OC)ccc3nc21	2.4	7%	-4.5	58*	-3.6

Rows were taken by chance; any-hit rate near 4.3%.
